# RE007 growth inh: qHTS Assay for Inhibitors of the HIV-1 protein Vpr; S. pombe RE007 Vpr strain, BacTiter-Glo ATP luminescence, 24 h; control for the full effect not named in the record; AID 651644, 2012; 0.21% of 360,000 active; Potency, µM (series often up to 92.2 µM), for the others: at the highest dose activity change, negative = less growth; active = well fitted falling curve with a large enough effect; inconclusive = small, poorly fitted or top-dose-only effect; inactive = no such curve, though single readings can be large or run the other way;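 note: % is set by controls: 0 for no effect and ±100 for the full control effect; nearly all actives have a fitted effect of over 50% in size; the assay follows cell death caused by Vpr and the record does not say whether a fall means rescue or toxicity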
#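 Fission yeast RE007 carrying one integrated HIV-1 vpr copy, seeded at OD 0.01 in PMG+AL medium with 23 nL pinned compound. Grown 24 h at 30 degrees; viability read by BacTiter-Glo luminescence after 5 min.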
# SARS PLP yeast: qHTS of Yeast-based Assay for SARS-CoV PLP. 0.19% of 330,000 active. Potency, µM (highest dose often 32.9 µM), inactives show top-dose activity, positive = growth rescue. S. cerevisiae expressing SARS-CoV PLpro, growth rescue; control for the full effect not named in the record; active means well fitted rising curve with a large enough effect; inconclusive means small, poorly fitted or top-dose-only effect; inactive means no such curve, though single readings can be large or run the other way; note: 0% is about no effect; nearly all actives have a fitted effect of over 55% in size; growth read by luminescence after 48 h
# 2A StopGo: High Throughput Screening for Foot and Mouth Disease Virus Antivirals; human cells with a luciferase reporter of 2A StopGo recoding; control for the full effect not named in the record; Potency, µM (series often up to 57.9 µM), inactives show at the highest dose signal change, negative = less light; 1.2% of 410,000 active; AID 1159524, 2015; active = well fitted falling curve with a large enough effect; inconclusive = small, poorly fitted or top-dose-only effect; inactive = no such curve, though single readings can be large or run the other way; tested in HEK293T cells; note: % is set by controls: 0 for no effect and ±100 for the full control effect; nearly all actives have a fitted effect of over 45% in size; luciferase light after 4 h
# Marburg entry inh: qHTS for inhibitors of binding or entry into cells for Marburg Virus; Marburg virus pseudotyped entry inhibition, cell reporter; control for the full effect not named in the record; about a third of the inactives were read at about 46 µM; Potency, µM (top dose mostly 37.8 µM), without a hit: at the top dose activity change, negative = inhibition, usual class: inhibitors; 1.8% of 300,000 active; AID 540276, 2011; active = well fitted inhibition curve with a large enough effect; inconclusive = small, poorly fitted or top-dose-only effect, or effect the other way; inactive = flat fitted curve, though single readings scatter; tested in HEK293 cells; about a fifth of its hits are not listed in these tables; note: % is set by controls: 0 for no effect and ±100 for the full control effect; luciferase read-out
# LASV entry inh: qHTS for Inhibitors of binding or entry into cells for Lassa Virus. Lassa virus pseudotype entry inhibition, cell reporter; control for the full effect not named in the record. Potency, µM (series often up to 37.9 µM), without a hit: top-dose activity change, negative = inhibition, usual class: inhibitors. 1.2% of 300,000 active; active means well fitted inhibition curve with a large enough effect; inconclusive means small, poorly fitted or top-dose-only effect, or effect the other way; inactive means flat fitted curve, though single readings scatter; tested in HEK293 cells; note: % is set by controls: 0 for no effect and ±100 for the full control effect; nearly all actives have a fitted effect of over 50% in size; luciferase read-out
# Cruzain inh Det: qHTS Assay for Promiscuous and Specific Inhibitors of Cruzain (with detergent). Cruzipain (Trypanosoma cruzi), P25779. purified cruzain, Z-FR-AMC fluorescence, 0.01% Triton. Potency, µM, without a hit: max response, negative = inhibition, usual class: inhibitors. 0.43% of 200,000 active. AID 1478, 2009;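 note: plate controls were neutral wells for no effect and buffer without enzyme for full effect; nearly all actives have a fitted effect of over 40% in size; top concentration of the series not given in the record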
# Target sequence (P25779 123-467 limits assumed): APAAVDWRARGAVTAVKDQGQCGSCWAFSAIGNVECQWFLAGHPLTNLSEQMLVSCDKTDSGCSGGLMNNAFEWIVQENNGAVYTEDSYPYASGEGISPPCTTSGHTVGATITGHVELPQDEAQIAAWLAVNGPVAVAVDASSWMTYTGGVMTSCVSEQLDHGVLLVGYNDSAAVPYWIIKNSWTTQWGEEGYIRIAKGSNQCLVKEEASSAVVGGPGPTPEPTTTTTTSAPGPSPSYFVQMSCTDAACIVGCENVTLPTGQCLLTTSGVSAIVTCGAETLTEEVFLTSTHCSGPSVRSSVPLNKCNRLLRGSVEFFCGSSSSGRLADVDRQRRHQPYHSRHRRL
#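 In this qHTS format, compounds are incubated with 1.5 nM cruzain for 15 min at room temperature before 2 uM Z-FR-AMC is added. Release of AMC is followed at 360/450 nm, and progress is taken as the 60 s fluorescence difference.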
# Cruzain noTriton: qHTS Assay for Promiscuous and Specific Inhibitors of Cruzain (without detergent). Cruzipain (Trypanosoma cruzi), P25779. purified cruzain, Z-FR-AMC fluorescence, no detergent. Potency, µM, inactives show max response, negative = inhibition, usual class: inhibitors. 2.3% of 200,000 active. AID 1476, 2009;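 note: plate controls were enzyme without inhibitor for no effect and buffer without enzyme for full effect; nearly all actives have a fitted effect of over 40% in size; top concentration of the series not given in the record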
#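 Purified cruzain at 1.5 nM, pre-incubated 15 min with compound at room temperature in 100 mM sodium acetate pH 5.5, 5 mM DTT, 0.00005% Triton X-100. Reaction started with 2 uM Z-FR-AMC; AMC fluorescence increase over 60 s gives rate.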
# NS1 function inh: qHTS Assay for Inhibitors of Influenza NS1 Protein Function; Potency, µM (series often up to 46.1 µM), inactives show at the highest dose activity, positive = more growth; S. cerevisiae slowed by influenza A NS1, growth recovery by OD600; 0.4% of 270,000 active; AID 2326, 2010; active means well fitted rising curve with a large enough effect; inconclusive means small, poorly fitted or top-dose-only effect; inactive means no such curve, though single readings can be large or run the other way; note: nearly all actives have a fitted effect of over 50% in size
#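 Growth recovery, yeast-based: influenza A NS1 expressed in S. cerevisiae causes slow growth, and suppressors are detected by OD600. The parent strain without NS1 is used as positive control.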
# * = called active by the depositor; ? = inconclusive; · = not tested or not shown; [ ] = another dose, or the depositor's remark. Unless noted, calls come from the whole dose curve; as a rule, active = well fitted curve in the direction sought with a large enough effect; inconclusive = small, poorly fitted or top-dose-only effect, or another doubt; inactive = no such curve, though single readings can be large; an effect the other way counts as inactive or inconclusive. Potency is the fitted concentration of half-maximal effect.
SMILES,RE007 growth inh,SARS PLP yeast,2A StopGo,Marburg entry inh,LASV entry inh,Cruzain inh Det,Cruzain noTriton,NS1 function inh
CC1CCN(C(=O)Cn2cc(SCc3ccccc3)c3ccccc32)CC1,·,·,-8%,·,9%[46.1 µM],-7.3%,-16%,·
Cc1ccc(S(=O)(=O)NC(C)C(c2cccs2)N2CCN(C)CC2)cc1 (stereo unspecified),1%,25%,·,-30%,20%,0.6%,2%,-1%
C=CCNC(=S)NN(c1ccccc1)c1ccccc1,4%,1%,-9%,7%[14.2 µM],1%,·,·,6%
Cc1cccnc1Nc1nc(-c2ccc(F)cc2)cs1,-22%,15%,-18%,-28%,?,·,·,-70%
COc1ccc(C(=O)Nc2ccccc2-c2ccccc2)cc1Cl,-21%,-3%,-21%,?,3%,-3.3%,-3%,3%
CC(=O)c1c(-c2ccc(Cl)cc2Cl)noc1C,7%,-1%,-10%,10%[46.1 µM],3%,·,·,-7%
O=C(Nc1cccc(Oc2ccc3c(c2)C(=O)NC3=O)c1)c1ccco1,4%,2%,·,0%,8%,-3.1%,-4%,-69%
Cc1nc(SCC(=O)Nc2cccc(S(=O)(=O)N3CCOCC3)c2)nc(C)c1C,-3%,-16%,1%,?,-24%[46.1 µM],·,·,·
Cc1nc(C)c(-c2ccnc(/N=C/NO)n2)s1,13%,0%,-14%,2%[46.1 µM],10%[46.1 µM],·,·,-3%
O=C(CSc1nnc2ccccn12)c1ccc(Cl)cc1,2%,4%,68%[activator],23%,?,·,·,·
COCc1c(C(=O)OC)nnn1-c1ccc(C(F)(F)F)cc1[N+](=O)[O-],11%,5%,7%,-8%[46.1 µM],-25%,·,·,·
CCCS(=O)(=O)N1CCCC(c2nc(-c3cccc(OC)c3)no2)C1 (stereo unspecified),0%,-3%,0%,8%,-35%[14.3 µM],-1.9%,9%,-23%
COc1ccc2oc(=O)c(C(=O)NCc3ccc4c(c3)OCO4)cc2c1,-10%,-1%,-6%,27%,-7%,-1.0%,8%,-4%
CN(C(=S)NC(=O)c1ccc(Br)o1)c1ccccc1,-4%,-13%,25%,?,?,-4.7%,-18%,8%
O=C(NC1CCCc2ccccc21)C(Cc1ccccc1)NS(=O)(=O)c1cccs1 (stereo unspecified),19%,10%,-16%,?,?,-2.5%,-12%,12%
CC(/C=C1\N=C(SCc2ccccc2Cl)SC1=O)=C\c1ccccc1,-2%,0%,4%,0%,-16%,-4.8%,25µM*,3%
CCC1(c2ccc(F)cc2)NC(=O)N(CC(=O)Nc2cccc(S(=O)(=O)N3CCCCC3)c2)C1=O (stereo unspecified),-1%,1%,-24%,?,-10%,·,·,·
Cc1nc2nc[nH]n2c(=O)c1CCOC(=O)c1ccccc1F,1%,-1%,10%,22%[46.1 µM],0%[46.1 µM],·,·,1%
COc1ccccc1NC(=O)CC(=O)Nc1ccccc1OC,11%,-1%,2%,5%[46.1 µM],10%[46.1 µM],·,·,1%
CCN(CC(=O)NCc1ccc(Cl)cc1)C(=O)CSc1ccccc1F,-5%,1%,15%,?,-26%,·,·,·
COc1ccc(NC(=O)C(C)N2c3cccc4cccc(c34)S2(=O)=O)c(OC)c1 (stereo unspecified),0%,-3%,-13%,-27%,3%,·,·,0%
Cc1ccc(-c2nnc(SCc3cccc(C#N)c3)o2)cc1,·,·,8%,?,4%[46.1 µM],-2.8%,5%,·
O=C(Nc1ccc(F)c(Cl)c1)N1CCC2(CC1)Oc1ccccc1C(=O)N2Cc1ccccc1F,·,·,-12%,4%[46.1 µM],·,-0.9%,-4%,·
CCCCNC(=O)c1cc2cc(OC)ccc2[nH]1,-2%,-1%,17%,·,·,·,·,3%
COc1ccc(NC(=O)Nc2ccc3nc(C)c(C)nc3c2)cc1,4%,-2%,-11%,1%,4%,0.9%,-22%,3%
# Continuation.
SMILES,RE007 growth inh,SARS PLP yeast,2A StopGo,Marburg entry inh,LASV entry inh,Cruzain inh Det,Cruzain noTriton,NS1 function inh
CCCCCCNc1cc2n(c(=O)n1)CCc1cc(OC)c(OC)cc1-2,16%,-3%,-15%,-16%,-9%,-16%,-13%,-15%
Cn1cnc(S(=O)(=O)N2CCN(c3cccc(Cl)c3)CC2)c1,13%,·,-1%,1%[46.1 µM],-25%[46.1 µM],·,·,-10%
COCc1cc(C)nc(OCC(=O)N/N=C\c2cc(C)n(-c3cccc(C(F)(F)F)c3)c2C)c1C#N,5%,5%,0%,-17%,-15%,-7.6%,?,11%
Cc1ccc(Nc2nc(C(=O)N3CCC(C(=O)NCc4ccccc4)CC3)cs2)cc1,19%,1%,-7%,-10%[46.1 µM],·,·,·,-8%
O=C(N/N=C/c1ccc([N+](=O)[O-])o1)c1cn(-c2ccccc2)nc1-c1ccccc1,-2%,18%,-29%,?,12%,-1.7%,2%,-3%
CC(C)CCNC(=O)C1CCN(C(=O)N(C)C)CC1,5%,3%,·,13%,20%,-2.8%,-5%,9%
C/C(=N\OCc1nc2ccccc2c(=O)n1/N=C/c1cc([N+](=O)[O-])ccc1O)c1ccccc1,7%,?,-4%,·,·,·,·,-6%
Cc1ccc(NC2=C(Cl)C(=O)OC2OC(=O)c2ccco2)cc1 (stereo unspecified),6%,2%,·,-18%,-5%,-6.3%,-3%,-5%
Cn1nnnc1SCC(=O)C(C)(C)C,-16%,0%,-9%,5%[46.1 µM],4%[46.1 µM],·,·,1%
O=C(O)C1CC(=O)N(Cc2ccc3c(c2)OCO3)C1 (stereo unspecified),-10%,3%,18%,5%,34%[14.3 µM],1.3%,0%,-2%
CC1=C(C(=O)Nc2ccc(C)cc2Cl)C2(CCCCC2)OC1=O,·,·,-25%,-16%[46.1 µM],-20%[46.1 µM],3.0%,-5%,·
C/C(=N\NS(=O)(=O)c1ccccc1)c1ccc2c(c1)OCCO2,7%,12%,58%[activator],?,-1%,-4.2%,-5%,3%
CN(C)S(=O)(=O)c1ccc(NC(=O)CN2CCCCCC2)cc1,13%,3%,-4%,-3%[46.1 µM],8%[46.1 µM],·,·,11%
Cc1ccc(NC(=O)Cn2cc(S(=O)(=O)N3CCN(c4ccccc4F)CC3)c3ccccc3c2=O)cc1F,·,·,-11%,?,-2%[46.1 µM],-1.9%,7.9µM*,·
O=C(Cc1ccccc1)NC(NC(=O)Cc1ccccc1)c1cccc([N+](=O)[O-])c1,1%,2%,13%,·,·,·,·,1%
Cc1ccc(-c2nnn(CC(=O)N(Cc3ccco3)C(C(=O)NC3CCCC3)c3cccs3)n2)o1 (stereo unspecified),2%,4%,-4%,-4%,?,-0.7%,9%,13%
CC1CCCCN1CCCNC(=O)c1cc(Br)c(Br)[nH]1 (stereo unspecified),2%,-1%,12%,?,-20%[46.1 µM],·,·,-3%
COc1cccc(-c2noc(COc3ccccc3Cl)n2)c1,·,·,71%[activator],12%[46.1 µM],?,-5.2%,-11%,·
Cc1ccc2c(c1)C1CN(C)CCC1N2C(=O)/C=C/c1ccc2c(c1)OCO2 (stereo unspecified),-3%,-6%,1%,?,0%[46.1 µM],·,·,·
CCc1ccc(NC(=O)CCCN2C(=O)C3CC=CCC3C2=O)cc1 (stereo unspecified),9%,32%,62%[activator],?,?,·,·,7%
CN(C)c1ccc(CNC(=O)CCn2cccn2)cc1,·,·,8%,·,-29%[46.1 µM],-2.1%,-14%,·
CCn1cc([N+](=O)[O-])c(C(=O)N2N=C(c3ccc4ccccc4c3)CC2c2cc(Br)ccc2O)n1 (stereo unspecified),16%,3%,-16%,?,?,-4.7%,-21%,?
Cc1ccccc1Nc1nc(N)nc(CSc2n[nH]c(N)n2)n1,-6%,1%,-2%,-1%[46.1 µM],-1%,·,·,2%
COc1ccc2c(c1)cc(C(=O)N[C@H](C(=O)N1CCC(C(=O)O)CC1)C(C)C)n2C,-8%,-1%,22%,0%[46.1 µM],?,·,·,2%
COc1ccc(/C=N/n2cnnc2)cc1Cn1nc(C)c([N+](=O)[O-])c1C,11%,0%,-13%,·,·,·,·,10%
# More records follow:
SMILES,RE007 growth inh,SARS PLP yeast,2A StopGo,Marburg entry inh,LASV entry inh,Cruzain inh Det,Cruzain noTriton,NS1 function inh
Cc1ccc(C(=O)NCC(=O)N2CCC3(CC2)NCCc2[nH]cnc23)cc1C,14%,-2%,1%,15%[46.1 µM],27%[46.1 µM],·,·,-4%
Cc1nc2ccccc2c(=O)n1NC(=O)C1CCCCC1,2%,-1%,·,2%,10%,8.0%,-2%,8%
COCc1cc(=O)[nH]c(Nc2nc(C)c3ccccc3n2)n1,5%,-6%,21%,3%,6%,-3.0%,-7%,2%
CC1=CC2=NC(=O)/C(=C\c3cccn3CCOc3ccc(C)c(C)c3)C(=N)N2O1,4%,1%,80%[activator],?,?,-6.0%,2%,-7%
Cc1ccc(N(CC(=O)NCC(C)c2ccccc2)S(=O)(=O)N(C)C)cc1 (stereo unspecified),·,·,0%,·,?,1.9%,6%,·
CCC(=O)N(Cc1cc2cc(OC)ccc2[nH]c1=O)c1ccc(C)cc1C,10%,1%,-18%,4%,?,-4.8%,-10%,2%
N#CC(C(=O)OCc1ccccc1)c1nc2ccccc2nc1N1CCOCC1 (stereo unspecified),-11%,-14%,36%[activator],?,?,-9.8%,-6%,-71%
CCOC(=O)c1sc(NC(C)=O)cc1C,2%,-15%,1%,·,·,1.6%,3%,-94%
COc1ccc(NC(=O)CN(C)CC(=O)Nc2ccccc2SC)cc1Cl,0%,11%,-4%,-26%,?,-2.9%,1%,-12%
COc1ccc(C(=O)N(Cc2ccccc2)Cc2cc3cc4c(cc3[nH]c2=O)OCCO4)cc1,6%,-4%,-1%,?,?,1.6%,-8%,4%
Cc1ccc(NC(=O)COC(=O)C2C3CC4OC(=O)C2C4C3)cc1 (stereo unspecified),-3%,1%,18%,-1%[46.1 µM],16%[46.1 µM],·,·,1%

# Random draw from the library. About 4.7% of those tested had a hit in this group.
